# D2 ag: activates the human D2 dopamine receptor. 0.084% of 360,000 active. P14416. DiscoveRx PathHunter D2 beta-arrestin, luminescence, 90 min; 100% = 57 uM dopamine signal. activation, % (test concentration not listed). AID 624465; in the data active = activation above about 40%; inconclusive = about 15% to 40%; inactive = below about 15%; note: compound concentration not given in the record; the text of the record calls up to 30% inactive
# Target sequence (P14416 whole entry, looked up): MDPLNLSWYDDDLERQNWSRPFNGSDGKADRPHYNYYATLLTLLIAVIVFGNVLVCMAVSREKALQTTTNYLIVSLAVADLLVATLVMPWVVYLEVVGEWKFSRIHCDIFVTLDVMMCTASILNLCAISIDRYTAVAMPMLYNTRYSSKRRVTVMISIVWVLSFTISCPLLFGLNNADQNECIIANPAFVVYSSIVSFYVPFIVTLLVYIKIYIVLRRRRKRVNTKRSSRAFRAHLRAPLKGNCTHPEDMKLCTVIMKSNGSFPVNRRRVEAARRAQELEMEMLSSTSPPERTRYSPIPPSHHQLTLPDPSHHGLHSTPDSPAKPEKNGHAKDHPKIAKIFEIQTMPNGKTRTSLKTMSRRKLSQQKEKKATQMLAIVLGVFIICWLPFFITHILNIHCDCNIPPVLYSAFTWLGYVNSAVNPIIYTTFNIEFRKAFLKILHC
#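 DiscoveRx PathHunter D2 beta-arrestin cells (2,100/well) attached overnight, then compound-stimulated 90 min at 37 C in HBSS/10 mM HEPES/0.1% Tween-20 buffer; beta-galactosidase complementation read by luminescence after 1 h at ambient temperature. Dopamine 57 uM final (EC100) as control.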
# PINK1 expr mod: changes PINK1 expression; PINK1 immunofluorescence, high-content cytometry, 24 h; Potency, µM (highest dose often 76.6 µM), without a hit: at the highest dose activation (PINK1 increase), actives largely listed as activators; 0.2% of 410,000 active; active = well fitted activation curve with a large enough effect; inconclusive = small, poorly fitted or top-dose-only effect; inactive = flat fitted curve, though single readings scatter; cell line not stated here;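 note: potency is the fitted concentration of half-maximal effect; % of control where 0% means no effect; nearly all actives have a fitted effect of over 65% in size; a mitochondrial uncoupler was the plate control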
#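 Stable cell line treated 24 h with compounds at 5 concentrations (CCCP controls), then fixed and immunostained for PINK1 plus nuclear and cell stains; PINK1 immunofluorescence quantified by laser-scanning microplate cytometry.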
# TRPML1 blocker: inhibitors of human TRPML1 channel; Q9GZU1; TRPML1-inducible cells, Ca2+ dye fluorescence, FDSS; active compounds read low; inhibition of EC80 agonist-evoked calcium signal; activity change, negative = inhibition, % (concentration not given with the values); 0.02% of 390,000 active; in the data active means activity change below about -50%; inconclusive means about -30% to -50%; inactive means above about -30%;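 note: stimulus is agonist 54-4 at its EC80 concentration; % is set by controls: 0 for no effect and ±100 for the full control effect; the text of the record puts the active cut at -80%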
# Target sequence (Q9GZU1 whole entry, looked up): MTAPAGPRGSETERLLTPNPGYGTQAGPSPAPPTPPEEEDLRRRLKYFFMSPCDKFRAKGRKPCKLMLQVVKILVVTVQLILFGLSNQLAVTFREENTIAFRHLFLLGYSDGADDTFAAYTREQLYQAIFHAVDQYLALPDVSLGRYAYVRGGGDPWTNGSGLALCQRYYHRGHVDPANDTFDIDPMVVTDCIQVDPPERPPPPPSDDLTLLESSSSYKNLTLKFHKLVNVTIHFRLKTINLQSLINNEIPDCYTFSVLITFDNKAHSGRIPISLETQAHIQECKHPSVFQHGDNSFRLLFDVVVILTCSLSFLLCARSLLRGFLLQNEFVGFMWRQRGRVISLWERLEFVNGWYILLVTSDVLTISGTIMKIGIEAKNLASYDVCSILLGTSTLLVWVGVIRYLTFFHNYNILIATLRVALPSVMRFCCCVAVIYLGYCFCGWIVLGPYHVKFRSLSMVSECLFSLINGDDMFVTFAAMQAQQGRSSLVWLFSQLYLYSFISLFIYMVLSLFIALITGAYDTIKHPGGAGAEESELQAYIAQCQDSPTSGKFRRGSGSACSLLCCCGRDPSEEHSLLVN
#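 Calcium fluorescence in TRPML1-DL cells induced overnight with Tet: a 110 s read after compound pin addition, then a 110 s antagonist read after challenge with 54-4 at 4 uM final (EC80).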
# Six1-Eya2 inh: blocks human Six1 binding to Eya2 | Q15475+O00167 | AlphaScreen GST-Six1/His-Eya2 binding, biochemical; active compounds read low; control for the full effect not named in the record | activity change, % (no concentration beside the values) | 0.56% of 360,000 active | AID 651725; in the data active = activity change below about -65%; inconclusive = about -30% to -65%; inactive = above about -30%; note: % is set by controls: 0 for no effect and ±100 for the full control effect
#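 AlphaScreen luminescence read after one hour at 37 °C in darkness. Pin-transferred compounds met GST-Six1 and His-Eya2 protein (5X stock 250 nM/500 nM) plus glutathione donor and Ni-chelate acceptor beads (5X, 50 ug/mL).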
# TRPML1 ag: activates the human TRPML1 channel; TRPML1-expressing cells, Ca2+ dye fluorescence, FDSS; host cell line not named in the record; reference of the full effect not given here; activation, % (no concentration beside the values); 0.12% of 410,000 active; in the data active = activation above about 50%; inconclusive = about 30% to 50%; inactive = below about 30%; note: 0% is about no effect; the text of the record puts the active cut at 80%
#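 Kinetic FDSS Ca2+ read in Tet-induced TRPML1-DL cells (ABD Ca8 dye plus quencher, 45-90 min RT loading): baseline, then compound, then 110 s agonist window; EC80 agonist 54-4 at 4uM final added afterwards for a 110 s antagonist window.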
# CtBP-E1A blk: blocks the CtBP interaction with E1A. activity change, % (test concentration not listed). AlphaScreen GST-E1A/His-CtBP binding, 1536-well; active compounds read low; control for the full effect not named in the record. 0.49% of 340,000 active; in the data active means activity change below about -65%; inconclusive means about -30% to -65%; inactive means above about -30%; note: % is set by controls: 0 for no effect and ±100 for the full control effect
#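 Steps: dispense buffer (Tris pH 8.0, NaCl 300 mM, TCEP 1 mM, BSA, Tween 20); add 5X protein mix (GST-E1A, His-CtBP, 125 nM each); pin 23 nL compound; 2 h at 37 °C, dark; add 5X beads (50 ug/mL); 1 h; read.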
# Starred values were filed as active, the others as inactive; ? = inconclusive; · = no result given; [ ] = remark or other dose. This is a random part of the collection; overall some 1% were active at least once.
SMILES,D2 ag,PINK1 expr mod,TRPML1 blocker,Six1-Eya2 inh,TRPML1 ag,CtBP-E1A blk
COc1ccc(NC(=O)N2C3CCCC2CC(NC(=O)C2CC2)C3)cc1 (stereo not drawn),-4.0,0.8%,7,2,0.0,-13
CC(C)c1ccc(OCC(=O)NNC(=O)c2cnccn2)cc1,-1.5,0.0%,-2,-14,-0.1,-11
Cc1ccnc(NC(=S)NC(=O)c2ccco2)c1,-3.4,0.8%,-11,-2,0.1,8
CCC(Sc1nnc(C)c(=O)[nH]1)C(=O)Nc1cccc2ccccc12 (stereo not drawn),0.5,0.2%,-2,-9,-0.2,4
S=C1Cc2ccccc2N1,8.3,-0.4%,-5,-21,0.9,-4
Cc1cc(C(=O)Nc2cc(S(C)(=O)=O)ccc2Cl)no1,-4.0,-3.6%,2,1,0.7,11
Cc1cccc(C)c1N1CCN(c2ccc3nnc(C(F)(F)F)n3n2)CC1,-4.5,-3.4%,-13,-3,1.1,-4
CCCCN(C=O)c1c(CC)nc2c(OCCC3CCCCC3)cccn12,1.6,20%,15,-4,0.4,-11
CCN1CCN(Cc2ccc(NC(=O)c3ccc(C)c(NC(=O)c4cncc(-c5cccs5)c4)c3)cc2C(F)(F)F)CC1,4.9,-0.8%,-15,-23,-0.4,0
O=C(Nc1ccccc1)c1nn(-c2ccccc2)c(=O)cc1C(F)(F)F,-4.0,19%,1,-3,-0.9,-3
COc1ccc(CC(=O)Nc2cccc(C(=O)NN3C(=O)c4ccccc4C3=O)c2C)cc1,3.0,2.5%,55,6,1.5,-17
COc1ccccc1N1CCN(C(=O)c2ccc(CS(=O)c3ccccc3C)o2)CC1 (stereo not drawn),·,6.8%,17,·,-0.4,·
Cc1ccc(-n2nc(-c3ccc(F)cc3)c3cnc4cc5c(cc4c32)OCO5)cc1C,·,0.0%,-15,·,1.4,·
COc1ccc(Nc2cc(=O)oc3ccccc23)cc1,-2.2,0.1%,16,1,2.4,-2
CC(C(=O)O)c1ccc(CC2CCCC2=O)cc1 (stereo not drawn),-7.5,-0.7%,-21,-1,0.2,4
Cc1cccc(Oc2nc3ccccn3c(=O)c2/C=C(\C#N)c2nc3ccccc3s2)c1C,·,?,-20,·,-0.6,·
Cc1ccc(C)c(C(O)c2ncc(-c3cccc(F)c3)[nH]2)c1 (stereo not drawn),7.9,1.9%,·,-3,1.3,1
O=C(COc1ccccc1C(=O)O)Nc1cccc2ccccc12,-1.5,1.4%,-8,-1,0.5,-2
C=CCNc1nc2c(c(=O)n(C)c(=O)n2C)n1CC,-6.6,0.6%,-6,0,-1.2,1
COc1ccc(NC(=O)Nc2cccc3c2O[C@H](CN(C)C(=O)Nc2c(C)noc2C)[C@@H](C)CN([C@H](C)CO)C3=O)cc1,-1.0,-0.4%,-4,1,-0.7,7
O=C(O)CSC1=NC(=Nc2ccc(Cl)cc2)C2(CCCCC2)N1c1cccc(C(=O)O)c1,-1.6,-0.9%,4,10,-0.1,2
COn1c(=O)c(-c2ccccc2)[n+]([O-])c2ccccc21,2.5,3.4%,21,7,0.9,6
Cc1cccc(NC(=O)Cc2ccc(F)cc2)c1,3.3,-0.5%,-20,9,1.3,5
O=C(COC(=O)c1ccccc1-c1nc2ccccc2s1)NC1CCS(=O)(=O)C1 (stereo not drawn),0.8,2.2%,-19,7,0.8,0
CC(C)(C)C(=O)OCc1cc(=O)n2nc(C3CC3)sc2n1,·,0.5%,-5,·,-0.3,·
# Next section
SMILES,D2 ag,PINK1 expr mod,TRPML1 blocker,Six1-Eya2 inh,TRPML1 ag,CtBP-E1A blk
CCc1ccccc1NC1=NCC(=O)N1Cc1ccccc1,-1.8,2.3%,-2,3,-0.5,-2
CCCN1CCC(=O)N(CCO)CC1,-7.3,0.5%,10,13,0.0,7
COc1cc(OC)cc(C(=O)NNC(=O)NC2CCCCC2)c1,-4.8,-1.2%,-1,0,0.4,-1
COc1ccc(C(=O)COC(=O)[C@H](C)Nc2ccc(C(F)(F)F)cc2[N+](=O)[O-])c(OC)c1,0.3,1.0%,-16,-9,-0.8,1
Nn1c(SCC(=O)Nc2ccc3c(c2)OCCO3)nnc1-c1ccncc1,3.5,2.0%,4,2,-0.3,12
COc1cc(CN(C(=O)c2ccc(OC(C)C)cc2)c2ccccn2)cc(OC)c1OC,·,-0.9%,9,·,0.8,·
Cc1cccc(C2=Nc3ccccc3N=C(c3cc(Cl)ccc3O)C2)c1,·,2.0%,-4,·,-0.3,·
CCn1c(-c2ccccc2)csc1=Nc1ccc(O)cc1,2.6,-0.3%,27,?,0.6,?
O=C(O)CC1(CC(=O)Nc2cc(C(F)(F)F)cc(C(F)(F)F)c2)CCCCC1,-1.1,?,-11,1,0.8,0
O=C(CN1C(=O)NC2(CCCC2)C1=O)OCCOc1cccc(Br)c1,-5.0,2.5%,8,6,1.1,0
Cc1ccc(CNS(=O)(=O)c2ccc3[nH]c4c(c3c2)CCCC4)cc1,·,2.9%,5,·,2.7,·
CC(=O)SCCC(=O)Nc1ccccc1,-2.9,2.7%[38.3 µM],1,4,0.3,1
O=C1NC[C@@H](c2ccccc2)OC(=O)[C@@H](Cc2ccc(F)cc2)CC/C=C/C[C@@H]1CC(=O)N(CCO)Cc1ccccc1,-16,3.5%,-1,-6,0.1,3
CCN(CC)CCNC(=O)/C(=N\O)c1ccccn1,-3.5,-0.7%,23,-22,-0.1,·
Cc1cc(C)c(S(=O)(=O)N2CCCC(C(=O)NCc3cccnc3)C2)c(C)c1 (stereo not drawn),-4.4,1.0%,7,5,-0.2,9
CCOc1ccc(S(=O)(=O)Nc2ccc3c(c2)CCCN3C(=O)c2cccs2)cc1,·,-0.6%,-9,·,-0.8,·
COc1ccc(C(=O)OCC(=O)N2c3ccccc3CC2C)cc1S(=O)(=O)N1CCOCC1 (stereo not drawn),-2.6,0.2%,-9,1,-0.4,0
COc1cccc(CC(=O)NNC(=O)c2c(-c3ccccc3)noc2C)c1,-0.9,-1.1%,-17,3,0.5,·
Clc1cccc(CSc2ccc(-c3cccs3)nn2)c1,·,3.4%,?,·,6.1,·
Cc1cc(C)cc(NC(=O)COC(=O)Cn2cnc3c2c(=O)n(C)c(=O)n3C)c1,4.3,-1.0%,0,-2,-0.6,-3
COc1ccc(C)cc1NS(=O)(=O)c1ccc2c(c1)N(C)CCO2,1.1,1.1%,-11,-8,3.5,-18
O=C(Cn1ncc2c([nH]c3ccccc32)c1=O)N1CCN(c2ccccc2F)CC1,-1.6,-0.4%,-16,4,0.3,1
O=C(Nc1cccc2ccccc12)C1CCN(C(=O)NCc2ccccc2)CC1,-0.9,0.0%,11,0,0.3,-6
Cc1ccc(S(=O)(=O)N2CCN(C(=O)Cn3nc(C)c([N+](=O)[O-])c3C)CC2)cc1,-0.1,1.0%,-11,6,-0.3,1
O=[N+]([O-])c1cc(-c2ccccc2)cc([N+](=O)[O-])c1O,-11,?,24,-13,2.1,-19
# More structures:
SMILES,D2 ag,PINK1 expr mod,TRPML1 blocker,Six1-Eya2 inh,TRPML1 ag,CtBP-E1A blk
Cc1cc(C(=O)NCC(=O)OCC(=O)N2CCCCCC2)ccc1[N+](=O)[O-],-0.3,4.5%,14,4,0.1,14
Cc1oc(C)c(C(=O)O)c1COc1ccc(C(=O)O)cc1,-1.1,-1.5%,-1,-11,-0.5,-6
CCCC(=O)Nc1cc2c(cc1C(C)=O)OCCO2,0.3,3.6%,-3,8,0.5,2
COc1ccc(-c2nc3ccccc3c(=O)n2CCOc2cccc(C)c2C)cc1,-1.6,3.5%,8,4,3.7,-7
CC1=C(c2ccc(C)c(C)c2)S(=O)(=O)N=C1N1CCC(C(=O)NC(C)c2ccccc2)CC1 (stereo not drawn),·,2.4%,6,·,2.9,·
O=S(=O)(c1ccc(C(F)(F)F)cc1)N1CCN(CCOc2ccccc2)CC1,-1.4,-3.7%,-9,3,1.9,10
CCOc1ccc(OCCN2C(=O)NC3(CCCc4ccccc43)C2=O)cc1 (stereo not drawn),-1.4,-2.1%,1,-5,3.4,0
CCOc1ccccc1C(=O)NC(C(=O)NCc1ccc(F)cc1)C(C)C (stereo not drawn),-1.1,-0.9%,1,3,2.3,0
CCOC(=O)c1c(-c2ccccc2)c(C(C)=O)c(=O)n(C)c1C,-0.8,0.5%,-20,9,1.3,1
CC(C)(C)N(NC(=O)Nc1ccc(Cl)cc1)C(=O)c1ccccc1,1.6,-1.2%,-4,4,0.1,-3
Nc1nc2ncc(C(=O)c3cc(Cl)cc(Cl)c3O)cc2s1,-3.1,-0.1%,-10,?,0.1,-72*
COc1ccc(-n2nc(C(=O)N3CCN(c4ccccc4OC)CC3)c3c4ccccc4n(C)c3c2=O)cc1,·,-0.5%,-4,·,1.8,·
CCCCn1c(NCc2cc(Cl)ccc2O)nc2ccccc21,·,?,65,·,0.9,·
CCN(CC(=O)Nc1c(F)cccc1F)C(=O)c1ccc2c(c1)NC(=O)C(C)S2 (stereo not drawn),-0.6,-0.5%,0,-1,0.6,6
CCCCCCCCC(=O)NCCOc1ccccc1,0.0,-1.2%,-7,15,2.2,15
CCOc1ccccc1NS(=O)(=O)c1ccc2[nH]c3c(c2c1)CCCCC3,·,?,3,·,3.1,·
Cc1nn(CC(=O)Nc2cccc(C(F)(F)F)c2)c(=O)c2nn(-c3ccccc3)c(C)c12,·,-1.5%,-5,·,-0.9,·
CC(=O)N[C@@H](C)C(=O)N1CCC(n2nccc2NC(=O)CCCc2ccccc2)CC1,-3.6,0.3%,6,1,-1.0,3
Cc1cccc(C(=O)Nc2sc(C(=O)N3CCCC3)c(C)c2C#N)c1,-1.0,-1.9%,6,?,0.5,?

# A draw from above in order of molecular weight, descending.
SMILES,D2 ag,PINK1 expr mod,TRPML1 blocker,Six1-Eya2 inh,TRPML1 ag,CtBP-E1A blk
O=C(COC(=O)c1ccccc1-c1nc2ccccc2s1)NC1CCS(=O)(=O)C1 (stereo not drawn),0.8,2.2%,-19,7,0.8,0
Cc1ccc(S(=O)(=O)N2CCN(C(=O)Cn3nc(C)c([N+](=O)[O-])c3C)CC2)cc1,-0.1,1.0%,-11,6,-0.3,1
O=S(=O)(c1ccc(C(F)(F)F)cc1)N1CCN(CCOc2ccccc2)CC1,-1.4,-3.7%,-9,3,1.9,10
O=C(Nc1cccc2ccccc12)C1CCN(C(=O)NCc2ccccc2)CC1,-0.9,0.0%,11,0,0.3,-6
Cc1cc(C(=O)NCC(=O)OCC(=O)N2CCCCCC2)ccc1[N+](=O)[O-],-0.3,4.5%,14,4,0.1,14
CC(C)(C)N(NC(=O)Nc1ccc(Cl)cc1)C(=O)c1ccccc1,1.6,-1.2%,-4,4,0.1,-3
Nc1nc2ncc(C(=O)c3cc(Cl)cc(Cl)c3O)cc2s1,-3.1,-0.1%,-10,?,0.1,-72*
Clc1cccc(CSc2ccc(-c3cccs3)nn2)c1,·,3.4%,?,·,6.1,·
Cc1ccc(C)c(C(O)c2ncc(-c3cccc(F)c3)[nH]2)c1 (stereo not drawn),7.9,1.9%,·,-3,1.3,1
Cc1oc(C)c(C(=O)O)c1COc1ccc(C(=O)O)cc1,-1.1,-1.5%,-1,-11,-0.5,-6

# Screening results from PubChem.
